# PrP UTR inh = suppresses PrP 5' UTR mRNA reporter expression. cell-based PrP 5' UTR mRNA reporter, plate reader. inhibition, % (concentration not given with the values). 340,000 compounds, 0.35% hits. AID 488862;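 active means every replicate at 50% or more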;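 further: 0 = median of the neutral control wells; tested in H4 reporter cells; numbers are from one replicate; inactives centre near -14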
# BJeLR lethal = kills HRASV12-expressing BJeLR cells. BJeLR (HRASV12) viability, CellTiter-Glo ATP luminescence, 48 h; reference of the scale not given here. inhibition, % (test concentration not listed). 300,000 compounds, 0.17% hits;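 active means replicate mean above 50%; inconclusive means above 50% but judged a plate artefact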;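 further: 50 nL library stock added to about 25 µL; numbers are from one replicate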
# Sa RN4220 lethal = kills Staphylococcus aureus RN4220; inhibition, % (no concentration beside the values); 330,000 compounds, 0.33% hits; S. aureus RN4220 growth, OD600, 16 h; AID 1259311;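 active means z-score of -3 or lower and OD600 up to 0.18 on both plates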;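 further: plate controls were untreated cells for no effect and reference antibiotic for full effect; stock transfer was 100 nL into about 80 µL; one replicate is shown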
# Sa ugtP lethal = compounds lethal to S. aureus RN4220 ugtP deletion mutant; growth inhibition, % (concentration not given with the values); OD600 growth, 16 h; some inactives read as strong as hits; AID 1259309; 330,000 compounds, 0.54% hits;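 active means z-score under -3 and OD600 up to 0.15 on both plates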;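 further: plate controls were untreated wells for no effect and antibiotic for full effect; wells of about 80 µL received 100 nL stock; the first replicate is given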
# Autofluor counter = flagged as autofluorescent in microsphere protease counterscreen; compound autofluorescence counterscreen, microsphere flow cytometry; active compounds read high; fluorescence intensity (concentration not given with the values); 360,000 compounds, 3.1% hits; AID 624483;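 active means at least 3 SD above the mean of all compounds, about 16000 in these data; inconclusive means too few beads counted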;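 further: 100 nL of 1 mM stock went into each well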
# Mtb hypoxia rep = inhibitors of hypoxia-regulated fluorescent reporter in Mycobacterium tuberculosis; M. tuberculosis hypoxia-regulated fluorescent reporter, fluorescence; fluorescence inhibition, % (no concentration beside the values); 300,000 compounds, 0.1% hits; AID 1159583;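 active means 35 to 45% if threefold the growth effect, above 45% if 1.5-fold the growth effect; inactive means the rest, general growth blockers included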;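 further: wells of about 50 µL received 100 nL stock; 0% = vehicle wells and 100% = reference inhibitor wells; whole bacteria with a GFP reporter of the hypoxia response; strong numbers were not always called active; many hits fall short of the cut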
# Mtb hypoxia rep growth = further read-out of Mtb hypoxia rep, marked with its call; growth inhibition, %; measured here: M. tuberculosis growth (absorbance);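 0% = vehicle and 100% = reference antibiotic; read after six days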
# The depositor's hits bear a star; ? = inconclusive; · = not tested or not shown; & = joins results of further samples.
Structure,PrP UTR inh,BJeLR lethal,Sa RN4220 lethal,Sa ugtP lethal,Autofluor counter,Mtb hypoxia rep,Mtb hypoxia rep growth
CCN1CCN(Cc2ccc(NC(=O)c3cc(NC(=O)c4cncc(-c5ccc(C#N)cc5)c4)cc(OC)c3)cc2C(F)(F)F)CC1,5.9,10.4,·,·,4273&4028,·,·
CC(NC(=O)c1coc(=O)c(Br)c1)c1ccccc1 (stereo unspecified),·,·,4.7,-3.7,·,10.2,10.7
COC(=O)C(NNc1ccc(F)cc1)(NC(=O)c1ccccc1)C(F)(F)F (stereo unspecified),-14.8,·,5.6,-1.0,2075,1.2,1.0
COc1ccc2c(C)cc(SCC(=O)N(C)C3CCS(=O)(=O)C3)nc2c1 (stereo unspecified),-30.6,1.6,0.6,4.7,6005,-0.9,5.5
CSCCC(NC(N)=O)C(=O)Nc1ccc(C)cc1 (stereo unspecified),-5.2,-9.8,8.4,6.0,4812,11.0,2.0
CSc1sc(C(=O)O)c2c1C(=O)CCC2,3.2,-9.4,1.8,6.6,4451,·,·
CC(C)c1ccc(C(=O)NC2=NCCS2)cc1,-48.2,0.7,7.8,7.9,2132,1.6,0.1
O=C(c1cc(-c2ccc(O)cc2)on1)N1CCOCC1,-40.4,-18.3,1.2,7.3,5365,-0.6,2.1
CCOc1cc(N2CCOCC2)c(OCC)cc1NC(=O)c1ccc(NC(C)=O)cc1,-12.9,-4.2,7.8,3.1,3015,1.2,5.2
CCC(C)NC(=O)C1CCN(S(=O)(=O)c2cc([N+](=O)[O-])ccc2Cl)CC1 (stereo unspecified),-5.3,-10.9,2.1,5.8,3332,10.0,1.6
O=C1COc2ccccc2N1Cc1c(F)cccc1Cl,-16.3,9.5,4.4,1.2,3952,11.4,2.6
Cc1ccc(C(=O)NNC(=O)c2ccc(S(=O)(=O)N3CCCCC3)cc2)cc1,-13.5,·,2.9,3.9,2771,7.7,-5.9
N#CCCN1CCN(S(=O)(=O)c2ccc(C3CCCCC3)cc2)CC1,-11.5,·,4.8,2.7,3986,-3.1,3.4
COc1ccc(-c2noc(CCC(=O)N3CCN(c4cccc(Cl)c4)CC3)n2)cc1,-19.1,·,7.1,6.8,2783,-5.2,8.4
CCNC(=S)N(C)CCc1cc2c(c(OC)c1C=C1C(=O)N(C)C(=O)N(C)C1=O)OCO2,-22.3,-9.8,·,·,3662,·,·
Cc1ccc(C2(C)NC(=O)N(CC(=O)N3CCc4ccccc43)C2=O)cc1 (stereo unspecified),-5.0,·,-0.4,-8.5,3776,-0.7,5.2
CCC(C)NC(=O)c1cn(CC)c2ccc(S(=O)(=O)N3CCCCC3)cc2c1=O (stereo unspecified),-20.4,7.7,1.9,2.6,5994,0.9,9.1
COc1ccc(N2CCN(C(c3cccs3)c3nnnn3C3CCCC3)CC2)cc1 (stereo unspecified),-3.9,-5.5,15.6,15.6,6223,-1.4,4.6
O=C(c1nc(-c2ccccc2)n(-c2ccccc2)n1)N1CCCCCC1,-33.1,0.8,6.1,-9.2,5025,1.2,5.8
CCOc1ccc(S(=O)(=O)N2CCC(C(=O)N3CCN(C)CC3)CC2)cc1Cl,-1.9,7.1,2.2,8.3,5859,4.3,0.6
Cc1ccc(/C=C/C(=O)Nc2nc3ccccc3[nH]2)cc1,-91.4,4.0,-3.2,-0.5,2680,-11.8,-9.0
CCc1nc(OCCN(C)C)c2oc3ccccc3c2n1,-21.6,7.8,6.5,-13.6,?,13.9,7.0
O=C(CCN1CCCCCC1)Nc1ccc(F)cc1,-20.1,-3.9,-3.1,-1.9,10226,4.9,2.4
CC(C)C(=O)NC(=S)Nc1ccccc1N1CCN(C(=O)c2ccc(Cl)cc2)CC1,-12.4,6.3,-0.5,6.0,·,-1.2,-5.0
O=[N+]([O-])c1ccc2nn(Cc3ccccc3)cc2c1,-9.6,-0.2,5.3,7.4,3905,19.2,9.1
CCCCN(C(=O)C1CC(=O)N(c2ccc(CC)cc2)C1)c1c(N)n(CCC)c(=O)[nH]c1=O (stereo unspecified),-2.9,·,-0.2,9.7,6508,-6.9,-4.4
COc1ccc(/C=C2/NC(=O)N(Cc3ccccc3F)C2=O)cc1OC,-5.9,-0.4,2.4,-7.3,3941,-12.1,6.3
Cc1ccc2c(CN3CCC(C)CC3)cc(=O)oc2c1,-61.2,-3.9,3.8,0.3,11750,-1.2,-3.2
CSc1cccc(NC(=O)c2cc(S(=O)(=O)N3CCc4ccccc43)cn2C)c1,-7.1,-1.3,1.6,5.6,5668,2.3,-2.5
CC(C)Cc1nnc(NS(C)(=O)=O)s1,-11.7,3.9,-12.6,-4.7,2859,7.0,4.7
O=S(=O)(NCC(c1ccco1)N1CCN(c2ccc(F)cc2)CC1)c1ccc(F)cc1 (stereo unspecified),-0.3,-5.9,·,·,11014,·,·
C=CCNC(=O)Cn1nc(-c2ccccc2)ccc1=O,4.7,-0.5,2.6,-1.3,8262,4.9,8.8
Cc1cc(SCc2cccc([N+](=O)[O-])c2)nc(=O)[nH]1,-11.0,0.2,3.1,-3.9,6426,8.5,3.9
O=C(CNc1ccc(F)cc1)N/N=C/C1CC=CCC1 (stereo unspecified),-9.6,-1.7,·,·,3380,·,·
CC(C)Cc1c(O)nc(SCCN2CCOCC2)[nH]c1=O,-19.5,-0.9,2.1,2.4,5310,8.5,10.4
CCOc1ccc(-c2nnc(SCC(=O)NC3CC3)o2)cc1,-14.0,·,6.7,1.1,5878,12.1,8.6
C/C(CCc1ccco1)=N\NC(=O)CNc1cccc2ccccc12,2.3,4.0,·,·,2330,·,·
CCOc1cccc(C=NNC(=O)c2cccnc2)c1O,·,·,-1.7,5.7,·,6.3,-5.0
O=C(NCCO)c1cc2c([nH]c3ccccc32)c(-c2ccc(F)cc2)n1,-15.0,1.7,-1.3,-0.8,3342,14.4,4.7
Cc1ccccc1-c1nnc(SCC(=O)NC2CCCC2)o1,-8.6,-0.3,2.4,0.9,6102,8.1,1.1
S=C1NCCOCCOCCOCCOCCNC(=S)NCCOCCOCCOCCOCCN1,-44.8,-2.9,5.0,-0.4,8447,5.5,5.7
CCOC(=O)c1ccc(N2C(=O)CC(N3CCC(Nc4ccc(F)cc4)CC3)C2=O)cc1 (stereo unspecified),-10.4,-6.4,3.3,3.3,15991,4.5,5.5
Cc1nn2c(N3CCN(C(=O)c4ccco4)CC3)cc(C(C)(C)C)nc2c1-c1ccccc1,·,-2.2,-6.8,-9.3,·,·,·
CCOc1ccccc1N(CC(=O)NC(C)(C)C)C(=O)c1ccc(CN2CCOCC2)o1,-21.5,-3.3,4.5,14.1,15832,5.2,-1.1
Cc1cc(C)n(CCCNC(=O)C2CC(=O)N(Cc3ccccc3)C2)n1 (stereo unspecified),-30.1,-2.3,3.9,4.7,5633,0.6,8.3
CCC(C(=O)c1ccc(O)cc1)c1ccccc1 (stereo unspecified),-12.6,9.6,2.0,3.1,2448,-2.3,-5.1
O=C(c1cc2ccccc2[nH]1)N1CCOCC1,-34.9,-10.6,2.1,-2.0,3384,-11.5,-6.0
Cc1ccccc1NC(=O)c1cccc(NC(=O)CCC(=O)O)c1,-5.1,-1.9,2.3,5.7,4643,-2.6,-2.5
O=C(CSc1ccc(F)cc1)N1CCC(c2nc3ccccc3s2)CC1,-13.3,7.3,-2.3,12.5,2686,·,·
CCOc1cc2[nH]c(=O)n(Cc3ccc(C(=O)NCCCN4CCC(C)CC4)cc3)c(=O)c2cc1OCC,-7.8,24.0,-1.8,6.0,6316,15.9,2.5

# Profiles, quoted from the list.
# Results for `O=[N+]([O-])c1ccc2nn(Cc3ccccc3)cc2c1` = PrP UTR inh: -9.6; BJeLR lethal: -0.2; Sa RN4220 lethal: 5.3; Sa ugtP lethal: 7.4; Autofluor counter: 3905; Mtb hypoxia rep: 19.2; Mtb hypoxia rep growth: 9.1
# Results for `CCNC(=S)N(C)CCc1cc2c(c(OC)c1C=C1C(=O)N(C)C(=O)N(C)C1=O)OCO2` = PrP UTR inh: -22.3; BJeLR lethal: -9.8; Sa RN4220 lethal: ·; Sa ugtP lethal: ·; Autofluor counter: 3662; Mtb hypoxia rep: ·; Mtb hypoxia rep growth: ·

# (more compounds)
Structure,PrP UTR inh,BJeLR lethal,Sa RN4220 lethal,Sa ugtP lethal,Autofluor counter,Mtb hypoxia rep,Mtb hypoxia rep growth
CCOc1ccc(-c2nnc3ccc(SCC(=O)N4CCN(c5ccccc5)CC4)nn23)cc1,-9.9,·,3.8,5.7,4526,1.2,8.3
COC(=O)c1ccc(NC(=O)CC2C(=O)N(c3ccc(C)cc3)C(=O)N2CC(C)C)cc1 (stereo unspecified),-1.6,-6.2,-1.2,7.7,11120,2.9,6.0
O=C(CNC(=S)NC(=O)c1ccc(Br)o1)c1ccccc1,-28.9,-27.4,5.3,-11.9,2431,12.4,3.8
Cc1ccc(CCN2CC(C(=O)NCCCN3CCC(C)CC3)CC2=O)cc1 (stereo unspecified),-13.1,1.8,2.8,2.2,5457,6.9,3.8
O=C(N/N=C/c1cccc([N+](=O)[O-])c1)c1cc(-c2ccc3c4c(cccc24)CC3)n[nH]1,-13.1,-5.8,·,·,2051,·,·
COc1cccc(-n2c(N)c(C#N)c3ccc([N+](=O)[O-])cc3c2=O)c1,·,3.9,66.4,71.4,·,14.2,11.4
CCOC(=O)C1=C(c2ccccc2)OC(N)=C(C#N)C1c1ccc(Br)s1 (stereo unspecified),-20.3,-14.5,19.7,2.2,2487,-6.0,-16.2
Cc1cc(NC(=O)CSc2nc(=O)n(CCN(C)C)c3c2CCCC3)no1,-28.7,11.5,0.8,8.6,6012,-5.7,5.9
Cc1ccc(NCC(=O)NNC2=NCCC2)c(C)c1,-11.9,-2.2,3.6,3.1,2029,18.8,5.3
CCCN(CCC)Cc1c(C(=O)NN=C/C(C)=C\c2ccco2)nnn1-c1nonc1N,·,·,19.8,1.4,·,6.3,11.1
COCC1CCCC1OS(N)(=O)=O (stereo unspecified),10.5,-4.5,3.3,-2.0,3038,6.9,4.0
O=C(CSc1cccc[n+]1[O-])Nc1cc(S(=O)(=O)N2CCOCC2)ccc1Cl,8.0,8.2,·,·,2580,·,·
O=C(NC1CCN(S(=O)(=O)c2ccccc2)CC1)c1cccc(F)c1,-24.8,-4.3,1.0,10.4,3512,3.2,1.3
O=C(c1ccc2[nH]ccc2c1)N1CCCC(Nc2ccccc2)C1 (stereo unspecified),-15.3,-1.5,3.8,5.0,4517,5.0,1.0
O=[N+]([O-])c1cc(-c2cnc3ccccc3n2)ccc1Oc1ccc(Br)cc1,-37.4,2.0,-6.2,-25.1,?,1.8,-4.2
CC(=O)Nc1ccc(S(=O)(=O)NC2CC3CCC2C3)cc1 (stereo unspecified),2.8,9.5,0.1,2.6,3310,-8.4,0.0
COc1cc2c(cc1OC)CN(CC(=O)Nc1ccc(Cl)cc1Cl)CC2,-30.6,-1.8,2.8,-1.0,4092,0.9,10.9
Nc1cc(-c2ccccc2)nn1S(=O)(=O)c1ccc(Br)cc1,-59.0,3.3,-2.8,17.6,5416,3.1,11.8

# Quoted from the results shown (3 entries):
Structure,PrP UTR inh,BJeLR lethal,Sa RN4220 lethal,Sa ugtP lethal,Autofluor counter,Mtb hypoxia rep,Mtb hypoxia rep growth
CCN1CCN(Cc2ccc(NC(=O)c3cc(NC(=O)c4cncc(-c5ccc(C#N)cc5)c4)cc(OC)c3)cc2C(F)(F)F)CC1,5.9,10.4,·,·,4273&4028,·,·
CC(NC(=O)c1coc(=O)c(Br)c1)c1ccccc1 (stereo unspecified),·,·,4.7,-3.7,·,10.2,10.7
COC(=O)C(NNc1ccc(F)cc1)(NC(=O)c1ccccc1)C(F)(F)F (stereo unspecified),-14.8,·,5.6,-1.0,2075,1.2,1.0

# Source: PubChem (several laboratories)
